# Sfp PPTase inh: blocks B. subtilis Sfp PPTase activity; AID 1490; 3.5% of 310,000 active; Potency, µM, for inactives: max response, negative = inhibition, usual class: inhibitors; Biochemical Sfp PPTase activity, qHTS; Q9F4F7; active = well fitted inhibition curve with a large enough effect; inconclusive = small, poorly fitted or top-dose-only effect, or another doubt; inactive = no such curve, though single readings can be large or run the other way;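 note: the enzyme is Sfp with the accession as filed and its product quenches rhodamine fluorescence; potency is the fitted concentration of half-maximal effect; 0% = enzyme reaction without inhibitor and -100% = no enzyme wells; top concentration of the series not given in the record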
#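 Buffer: 50 mM Hepes-Na pH 7.6, 10 mM MgCl2, 0.01% Nonidet P-40, 0.01% BSA. Enzyme 15 nM, pre-exposed to compound 15 min; substrates then added and fluorescence change tracked over 30 min.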
# PINK1 modulator: changes PINK1 expression; PINK1 immunofluorescence, high-content cytometry, 24 h; 0.2% of 410,000 active; Potency, µM (doses to about 76.6 µM), for the others: at the top dose activation (PINK1 increase), hits mostly activators; active = well fitted activation curve with a large enough effect; inconclusive = small, poorly fitted or top-dose-only effect; inactive = flat fitted curve, though single readings scatter; cell line not stated here;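 note: potency is the fitted concentration of half-maximal effect; % of control where 0% means no effect; nearly all actives have a fitted effect of over 65% in size; a mitochondrial uncoupler was the plate control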
#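 Compound titrations (5 concentrations, 24 h) on a stable cell line; DMSO and CCCP controls. Endpoint: fixed-cell PINK1 immunofluorescence with mitochondrial, cell and nuclear markers, scanned by microplate cytometer.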
# Six1-Eya2 inh: inhibitors of human Six1/Eya2 interaction | Q15475+O00167 | AlphaScreen GST-Six1/His-Eya2 binding, biochemical; hits give low values; control for the full effect not named in the record | activity change, % (concentration not given with the values) | 0.56% of 360,000 active; in the data active = activity change below about -65%; inconclusive = about -30% to -65%; inactive = above about -30%; note: % is set by controls: 0 for no effect and ±100 for the full control effect
#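 Homogeneous AlphaScreen proximity assay pairing GST-Six1 with His-tagged Eya2 (added as 5X mix: 250 nM and 500 nM) in 50 mM Tris pH 8.0, 300 mM NaCl, 1 mM TCEP. Glutathione donor and nickel acceptor beads; 1 h, 37 °C, dark.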
# TRPV1 PAM: human TRPV1 potentiation | 0.02% of 320,000 active | TRPV1-expressing cells, Fluo-8 calcium influx, capsaicin EC20 potentiation; host cell line not named in the record; control for the full effect not named in the record | Q8NER1 | potentiation, % at 8.33 µM; active means potentiation above 80%; inconclusive means 30% to 80%; inactive means below 30%; note: 0% is about no effect
# Target sequence (Q8NER1 whole entry, looked up): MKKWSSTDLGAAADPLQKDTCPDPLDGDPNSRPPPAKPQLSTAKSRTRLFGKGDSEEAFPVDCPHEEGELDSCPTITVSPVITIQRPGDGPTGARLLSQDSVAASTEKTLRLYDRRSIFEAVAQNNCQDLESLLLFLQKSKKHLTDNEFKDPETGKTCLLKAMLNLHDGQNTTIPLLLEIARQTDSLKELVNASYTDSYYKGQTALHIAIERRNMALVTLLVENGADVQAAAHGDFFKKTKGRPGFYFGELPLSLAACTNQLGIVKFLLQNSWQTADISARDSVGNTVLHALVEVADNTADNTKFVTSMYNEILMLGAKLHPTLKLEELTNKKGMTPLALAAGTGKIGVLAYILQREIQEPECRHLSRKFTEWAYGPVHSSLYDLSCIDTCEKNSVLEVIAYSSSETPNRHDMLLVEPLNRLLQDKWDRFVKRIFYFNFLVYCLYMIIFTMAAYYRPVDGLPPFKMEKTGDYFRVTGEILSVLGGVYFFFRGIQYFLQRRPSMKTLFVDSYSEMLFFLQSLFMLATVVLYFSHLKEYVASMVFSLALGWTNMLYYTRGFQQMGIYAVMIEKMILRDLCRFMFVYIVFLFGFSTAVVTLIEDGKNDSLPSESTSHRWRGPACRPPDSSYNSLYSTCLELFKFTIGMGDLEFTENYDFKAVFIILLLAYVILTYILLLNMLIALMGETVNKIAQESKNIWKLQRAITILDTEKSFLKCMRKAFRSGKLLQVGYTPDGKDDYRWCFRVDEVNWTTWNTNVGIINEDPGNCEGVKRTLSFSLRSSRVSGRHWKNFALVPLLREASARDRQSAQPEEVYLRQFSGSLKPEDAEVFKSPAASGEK
#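 Fluo-8 calcium influx in TRPV1-expressing cells, kinetic read (ex 480/em 520 nm). Compound added and read 3 min for agonist activity, followed by capsaicin at EC20 final and 2 min further read for enhancement.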
# D2 ag: human D2 receptor agonism in beta-arrestin assay | P14416 | DiscoveRx PathHunter D2 beta-arrestin, luminescence, 90 min; 100% = 57 uM dopamine signal | activation, % (test concentration not listed) | 0.084% of 360,000 active; in the data active = activation above about 40%; inconclusive = about 15% to 40%; inactive = below about 15%; note: compound concentration not given in the record; the text of the record calls up to 30% inactive
#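 Agonist mode: compounds alone added to overnight-plated D2 PathHunter cells for 90 min at 37 C, with 57 uM final dopamine (EC100) defining full response. Beta-arrestin recruitment detected by chemiluminescent reagent, read after 1 h at ambient temperature.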
# D2 PAM: positive allosteric modulators of human D2 dopamine receptor; AID 624464; 0.23% of 360,000 active; DiscoveRx D2 beta-arrestin cells, luminescence, 90 min; 100% = 57 uM dopamine signal; potentiation, % (concentration not given with the values); active = potentiation of 50% or more; inconclusive = 30% to 50%; inactive = 30% or less;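 note: compound concentration not given in the record; tested on top of an EC20 dose of dopamine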
#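 PathHunter beta-arrestin assay in DiscoveRx D2 cells. Compounds were added with an EC20 of dopamine (50 nM final) for 90 min at 37 deg C. Luminescence was read 1 h after detection reagent, with 57 uM dopamine as the EC100 control.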
# CtBP-E1A blk: blocks the CtBP interaction with E1A | 0.49% of 340,000 active | AlphaScreen GST-E1A/His-CtBP binding, 1536-well; hits give low values; control for the full effect not named in the record | activity change, % (test concentration not listed); in the data active means activity change below about -65%; inconclusive means about -30% to -65%; inactive means above about -30%; note: % is set by controls: 0 for no effect and ±100 for the full control effect; compound concentration not given in the record
#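 AlphaScreen with 125 nM GST-E1A and 125 nM His-CtBP (5X stocks) in Tris pH 8.0, 300 mM NaCl, BSA, Tween 20, TCEP. Compounds preincubated 2 h at 37 deg C, then glutathione donor/nickel acceptor beads added for 1 h at 37 deg C in dark.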
# Active calls of the source: *; ? = inconclusive; . = no result given; & = joins results of further samples.
SMILES	Sfp PPTase inh	PINK1 modulator	Six1-Eya2 inh	TRPV1 PAM	D2 ag	D2 PAM	CtBP-E1A blk
O=C(Nc1cccc(Cl)c1)Nc1cc(S(=O)(=O)N2CCCCC2)ccc1Cl	27%	14µM*	-7	14	2.0	-9	-4
CCOC(=O)NC(=S)Nc1cccc(C)n1	.	0.4%	-6	.	-1.0	-9	2
COc1ccc(OC)c(NC(=O)Cn2c(C)nc3ccccc3c2=O)c1	11%	-0.7%	3	-7	-2.8	-6	-28
O=C(NC(=O)c1c(F)cccc1F)O/N=C1\CCCc2occc21	24%	-0.9%	-2	-1	-1.6	-9	-3
Cc1cc(C(=O)COC(=O)c2cccn2C)c(C)n1Cc1ccco1	-18%	1.2%	?	-11	-6.6	-5	.
CCOC(=O)C1=C(C)NC(C)=C(C(=O)OCC)C1C(=O)OCC(=O)N1CCc2ccccc21	2%	-1.5%	-2	?	-5.4	-13	0
CN(c1ccc(OCC(=O)OCC(=O)Nc2cccc([N+](=O)[O-])c2)cc1)S(=O)(=O)c1ccc(F)cc1	19%	0.0%	-6	21	-1.4	-3	-6
C#CCOCCOCCOCCNc1nc(N2CCN(C(=O)C([C@@H](C)CC)n3cc(C(N)Cc4ccc(O)cc4)nn3)CC2)nc(N2CCN(C(=O)[C@H](CCC(=O)O)n3cc(C(N)[C@H](C)CC)nn3)CC2)n1 (stereo not given in full)	-7%	-1.6%	-8	2	-0.3	-4	-7
Cc1cc(O)c2c(c1)CC1C3CCC4CC(=O)CCC4(C)C3CC(=O)C21C (stereo not given)	.	-0.6%	-1	.	0.6	-9	6
Cn1c(CCN2CCOCC2)nc2cc(NC(=O)COc3ccc(Cl)cc3)ccc21	4%	3.2%	1	-4	-1.4	-2	-3
CCCc1cc(=O)[nH]c(/N=C(/NC(=O)C(C)N2C(=O)c3ccccc3C2=O)Nc2ccccc2)n1 (stereo not given)	12%	-4.4%	5	2	-1.4	-3	-8
COc1ccc(NC(=O)C(=O)N2N=C3CCCCC3C2(O)C(F)(F)F)cc1 (stereo not given)	-7%	0.5%	2	-3	-5.0	-16	.
CC[C@H](C)[C@H](NC(N)=O)C(=O)Nc1ccc(NC(C)=O)cc1	16%	1.0%	2	-15	-2.2	2	4
COC(=O)C1CC(c2ccccc2)N(c2ccccc2)O1 (stereo not given)	.	1.8%	19	.	5.7	-7	1
C/C=C/C=C(/NC(=O)c1ccccc1)C(=O)Nc1ccccc1	20%	-0.2%	1	1	-0.6	-7	0
COCCN(CC(=O)Nc1cccc(C)c1C)C(=O)/C=C/c1ccc2c(c1)OCCO2	.	1.1%	1	.	-2.5	-9	5
CN(CC(=O)Nc1ccc(F)cc1)C(=O)COC(=O)c1nc(Cl)ccc1Cl	.	0.9%	-3	.	-2.2	-14	2
CCCCN1CCc2c([nH]c3ccc(C)cc23)C1=O	-27%	-0.2%	-3	19	0.7	2	5
COC(=O)C1Cc2c([nH]c3ccccc23)C2(CCN(Cc3ccccc3)CC2)N1 (stereo not given)	-5%	17%	-27	-11	-5.4	-12	?
Cc1ccc2nc(C3CCCN3Cc3nc(CCC(C)C)no3)[nH]c2c1 (stereo not given)	9%	4.1%	1	-2	-2.9	-7	-3
C[C@H]1CCC(=O)N(CCSc2ccc(Br)cc2)CC1	.	2.5%	6	5	-2.9	-6	15
O=C(CN1CCc2ccccc21)NN1CC(=O)N(c2ccccc2)CC1=O	-1%	0.1%	-1	0	-6.3	-17	.
O=C(C1COc2ccccc2O1)N1CCCCC1 (stereo not given)	.	0.2%	3	-3	-1.2	-2	10
c1ccc(SCCOCCN2CCOCC2)cc1	-15%	0.1%	6	-4	2.9	-18	10
COc1ccc(/C=C2\N=C(C(C)(C)C)OC2=O)c(OC)c1	14%	5.6%	4	-12	-7.7	-11	.
O=S(=O)(c1ccccc1)N1CCN(c2ccccc2)CC1	20%	0.7%&2.3%	8	2	0.3	-10	.
O=C(COC(=O)[C@H](Cc1ccccc1)NC(=O)c1ccco1)NC(c1ccccc1)c1ccccc1	7%	0.3%	-8	-10	-5.4	-2	-6
C=CCc1cccc(/C=N/NC(=O)CCC(=O)Nc2ccc(F)cc2)c1O	-17%	0.3%	6	-12	-6.2	-12	-4
COCCN1C(=O)COc2ccccc2C1C(=O)NCc1ccccc1 (stereo not given)	.	0.7%	2	.	.	.	6
Cc1cc([N+](=O)[O-])nn1CC(=O)Nc1cc(F)ccc1F	17%	0.5%	1	-12	-2.9	-10	2
CN(C)S(=O)(=O)c1cccc(-c2csc(N/N=C/c3ccco3)n2)c1	14µM*	0.4%	-6	-8	?	6	-11
CCC(CC)C(=O)Nc1nnc(SCC(=O)NC(C)(C)C)s1	27%	3.9%	30	-4	-4.0	-6	.
Cc1cc(=O)oc(C)c1C(=O)OCC(=O)c1ccc(Br)cc1	-9%	0.4%	9	15	0.3	-9	-1
COc1cc(/C=N/NC(=O)c2nonc2N)cc(OC)c1OC	-8%	-1.6%	-9	-10	2.8	-2	-4
Cc1cc(Cl)ccc1OCC(=O)N/N=C1\CC2C=CCC12 (stereo not given)	9%	2.0%	6	3	-2.9	-11	1
O=c1oc2ccccc2c(N2CCC(c3ccccc3)CC2)c1[N+](=O)[O-]	26%	-0.2%	1	0	-2.1	-15	2
CN(C)CC1CCC/C(=C\c2ccc(OC(=O)/C=C/c3ccccc3)cc2)C1=O (stereo not given)	.	-1.0%	-7	.	-3.9	-25	2
COc1ccc(CCNC(=O)CCCc2ccccc2)cc1OC	8%	5.9%	10	-15	1.7	11	5
CCc1cc(=O)oc2c(C)c(OCC(=O)N3CCCc4ccccc43)ccc12	2%	-2.1%	-13	16	-3.4	1	-17
c1ccc(-c2ccccc2OCCOCCN2CCCCC2)cc1	?	-0.6%	3	5	-5.9	-26	-4
O=c1c2ccccc2oc2cc(NCCCn3ccnc3)ccc12	19%	-0.6%	?	1	0.8	-5	?
CCCCn1c(N)c(N(CC(C)C)C(=O)c2cccc(S(=O)(=O)N3CCCCC3)c2)c(=O)[nH]c1=O	.	0.0%	1	-7	0.5	3	-12
Cc1cc(C(=O)NCC(=O)OCC(=O)Nc2ccc(OC(F)F)cc2)ccc1[N+](=O)[O-]	0%	-1.2%	5	-7	1.4	-5	-3
CCOc1ccccc1Nc1nnc(SCC(=O)Nc2ccc3[nH]c(=O)[nH]c3c2)s1	-16%	0.8%	-21	?	0.3	-4	-6
O=[N+]([O-])c1ccc(Cl)c(/C=N/Nc2nc(N3CCOCC3)nc(N3CCOCC3)n2)c1	-7%	22%	3	-10	-1.1	-8	10
CC(NC(=O)CN(C)Cc1cccc(F)c1)c1ccccc1 (stereo not given)	0%	-0.1%	7	24	-7.8	-5	4
O=C(Nc1nnc(SCc2ccc(Cl)cc2)s1)c1ccco1	6%	-0.4%	1	10	0.9	-4	6
Cc1nc(CN(C)C(=O)CC2C(=O)NCCN2Cc2ccc(-c3ccccc3)cc2)cs1 (stereo not given)	?	0.5%	-2	0	-6.5	9	-3
Cc1cc(C(=O)N2CCCC2C(=O)O)c(C)o1 (stereo not given)	-13%	-4.0%	6	-1	-1.9	6	0
CCOc1ccc(N/C(N)=N/c2nc(CSc3nnnn3-c3ccccc3)cc(=O)[nH]2)cc1	23%	10.0%	-1	6	-3.0	-7	-1

# More records
SMILES	Sfp PPTase inh	PINK1 modulator	Six1-Eya2 inh	TRPV1 PAM	D2 ag	D2 PAM	CtBP-E1A blk
COc1ccc(/C=C2\SC(=O)N(CC(=O)NNC(=O)c3ccccc3O)C2=O)cc1	-5%	1.1%	-6	-6	-2.2	-5	-7
COc1ncnc2c1oc1nc(C)c3c(c12)CC(C)(C)OC3	7%	-0.1%	16	.	-0.3	-8	0
O=C(NC(=S)NCCN1CCOCC1)c1ccc(Cl)cc1	1%	2.9%	1	-5	-2.4	-6	-1
O=C(O)c1ccc(S(=O)(=O)c2ccccc2C(=O)O)c([N+](=O)[O-])c1	-21%	-0.1%	2	-14	-2.2	0	4
O=C(O)c1cccc(Nc2ccncc2[N+](=O)[O-])c1	-6%	7.3%	-10	24	-0.3	3	5
O=C(CN(CC1CCCO1)C(=O)CNS(=O)(=O)c1ccc(F)cc1)NCC1CCCO1 (stereo not given)	15%	0.0%	4	-4	-1.3	-4	6
CCOC(=O)c1[nH]c2ccccc2c1N=CN(CC)CC	17%	-1.6%	-20	25	-4.3	4	4
CN(CCOC(=O)c1cccc(Br)c1)C(C)(C)C	7%	-0.5%	0	?	-4.1	-12	-5
COc1cccc(C(CNc2ccc(S(=O)(=O)N3CCN(C)CC3)cc2[N+](=O)[O-])N(C)C)c1 (stereo not given)	.	-0.2%	-6	-9	-2.0	-13	2
CC(C)C(=O)Nc1ccccc1-c1nc2ccccc2[nH]c1=O	12%	-0.1%	0	5	-4.6	-5	.
Cc1ccc(S(=O)(=O)Nc2ccccc2C=NNC(=O)c2ccncc2)cc1	.	7.8%	1	.	-3.7	-7	4
Cc1ccc(-n2cc(CN3CCNC(=O)CC3)c(-c3ccc(F)cc3)n2)cc1	11%	4.8%	-4	-16	-1.4	-4	-2
O=C(Nc1ccncc1)C1CCN(S(=O)(=O)c2c(Cl)cccc2Cl)CC1	.	1.7%	-4	-2	4.2	10	-27
CCCN(CC(=O)Nc1ccccc1OC)C(=O)C1=COCCO1	.	0.1%	12	-9	1.5	-3	19
N#Cc1c(-c2ccc(C(F)(F)F)cc2)cc(-c2ccccc2)[nH]c1=S	-6%	2.3%	0	-5	-2.0	-15	3
Cc1cccc(-n2ncc3c2CCCC3NC(=O)CCCN2CCCCC2=O)c1C (stereo not given)	2%	2.5%	9	6	-5.0	-1	0
O=[N+]([O-])c1ccccc1CN1CCN(c2ncccn2)CC1	-14%	0.3%	7	1	9.5	-4	18

# Grouped by structure, those above containing a CF3 group.
SMILES	Sfp PPTase inh	PINK1 modulator	Six1-Eya2 inh	TRPV1 PAM	D2 ag	D2 PAM	CtBP-E1A blk
COc1ccc(NC(=O)C(=O)N2N=C3CCCCC3C2(O)C(F)(F)F)cc1 (stereo not given)	-7%	0.5%	2	-3	-5.0	-16	.
N#Cc1c(-c2ccc(C(F)(F)F)cc2)cc(-c2ccccc2)[nH]c1=S	-6%	2.3%	0	-5	-2.0	-15	3

# Bioassay records from PubChem BioAssay.
